# Screening data from PubChem.
# BmaI1 = BmaI1 acyl-homoserine lactone synthase inhibition – biochemical, fluorescence intensity, with counterscreen (AID 720554); BmaI1 enzyme assay, fluorescence intensity; stronger effect = higher value; test concentration not given here; a few actives read low; strong numbers were not always called active; inhibition, %; 12,000 tested, 0.4% active;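 active means both replicates within 2 robust z-scores of the inhibited control and a quiet counterscreen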;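 further: 0% = uninhibited enzyme and 100% = inhibited control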
# BmaI1 counterscreen = second read-out of BmaI1, no call of its own (marks repeat the call); inhibition, %; measured here: counterscreen; design of the counterscreen not given here;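 first of two replicates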
# * hit, by the source's call. A portion of the library; the hit share may differ from the screen's.
SMILES,BmaI1,BmaI1 counterscreen
CSc1ccccc1NC(=O)C1CCCC1,16,7
CN(C)C(CNCc1ccc(-n2cnc3ccccc32)cc1)c1ccco1 (centres undefined),-6,2
CC(C)CNC(C)C(=O)Nc1ccc(S(N)(=O)=O)cc1 (centres undefined),8,2
CCN(CC(=O)NCC12CC3CC(CC(C3)C1)C2)Cc1nc2ccccc2c(=O)[nH]1,16,-5
N#CC1(NC(=O)CSc2ccccc2F)CCCCC1,34,8
Cc1ccc(NC(=O)COC(=O)C2(CC(=O)NC(C)C)CCCC2)cc1C,34,15
CC(NCCOc1ccccc1F)C(=O)Nc1ccc(S(N)(=O)=O)cc1 (centres undefined),8,10
C=CCn1c(NC(=O)/C=C/c2ccccc2)c(C#N)c2nc3ccccc3nc21,25,8
CNC(=O)c1sc(NCC(C)C)nc1C,6,10
COc1cc(-c2nnc(SCc3nc4scc(-c5ccccc5)c4c(=O)[nH]3)o2)cc(OC)c1OC,2,-5
O=C(CCCN=C1NS(=O)(=O)c2ccccc21)Nc1ccc2c(c1)CCC2,0,3
CCN(Cc1nc2cc(OC)c(OC)cc2c(=O)[nH]1)Cc1cc(=O)oc2c(C)c(C)ccc12,8,-2
CCN(c1ccccc1)S(=O)(=O)c1ccc(N2CCc3ccccc3C2)nc1,12,12
O=C(NCCC(=O)N1CCN(c2ccccn2)CC1)Nc1ccccc1,19,5
CCN(CC)c1ncc(C(=S)N=P(N(C)C)(N(C)C)N(C)C)s1,17,2
COc1cc(/C=N/n2c(C)nnc2C)cc(OC)c1O,37,-28
Cn1c(CCC(=O)OCC(=O)N2CCN(S(=O)(=O)c3ccc(Cl)cc3)CC2)nc(=O)c2ccccc21,28,-4
Cc1cc(N/C=C2/CCCCC2=O)no1,32,4
COc1ccc2[nH]cc(CCN)c2c1,0,-4
O=C(Cc1ccccc1)N1CCN(c2cccc(C(F)(F)F)c2)CC1,15,8
N#Cc1ccccc1NC(=O)CN1CCNC(=O)C1,6,5
CC1(C)NNC(=S)N(Cc2cccc3ccccc23)C1=O,11,38
CCOC(=O)c1ncn2c1CN(C)C(=O)c1cc(F)ccc1-2,0,2
Cc1cc(C)n2nc(C(=O)Nc3sc4c(c3C(N)=O)CCC4)nc2n1,29,2
N#CC(Cc1ccccc1OC(F)F)c1nc2ccccc2[nH]1 (centres undefined),22,2
SMILES,BmaI1,BmaI1 counterscreen
COc1ccc(C(=O)NC(=O)CSc2nnc(CN3CCCCCC3=O)n2-c2ccccn2)cc1,-2,-10
O=C(CSc1nnc2c(Cl)cc(C(F)(F)F)cn12)NCC(F)(F)F,12,4
O=S(=O)(Nc1ccc(-c2cn3ccsc3n2)cc1)c1ccccc1,12,10
O=C(Cn1cnc2ccccc21)N/N=C/c1sc(N2CCCCC2)nc1-c1cccs1,17,9
CC(C)NC(=O)NCc1ccc(C(=O)OCc2nnc(-c3ccccc3)o2)cc1,11,6
O=C(CCn1[nH]c(=O)ccc1=O)Nc1nc2ccccc2[nH]1,15,24
CN1CCN(/N=c2\cc(-c3ccccc3)oc3ccccc23)CC1,24,2
O=C(O)CN1c2cccc3cccc(c23)S1(=O)=O,18,-6
COc1ccc(CCNc2ccccc2C(=O)O)cc1OC,0,2
Cn1c(-c2ccccc2)c(C(=O)CSc2nnc3n2CCCCC3)c2ccccc21,10,14
NC(=O)c1c(NC(=O)COC(=O)C2CC(=O)N(Cc3ccco3)C2)sc2c1CCC2 (centres undefined),34,14
COC(=O)C(=Nc1ccc(NC(C)=O)cc1)C(F)(F)F,43,12
COc1cccc(OC)c1OC(=O)c1c(F)cccc1F,7,6
Cc1nc2ccccc2nc1CSc1nnc(C2COc3ccccc3O2)n1C (centres undefined),1,6
O=C(CSc1ccc(F)cc1)OCCN1CCOCC1,2,1
COc1ccccc1N(CC(=O)Nc1sc2c(c1C(N)=O)CCC2)S(=O)(=O)c1cccs1,12,16
CC(CC(=O)N1CCN(c2ccccn2)CC1)n1ccnc1 (centres undefined),4,6
NCCN1CCN(Cc2ccccc2)CC1,4,0
COc1cc(/C=N/n2cnc3scc(-c4cccs4)c3c2=O)ccc1O,12,10
CCOC(=O)/C(=N\Nc1ncnc2ccccc12)c1ccc(OC)cc1,38,-2
CCN(CC)S(=O)(=O)c1cccc(C(=O)OCC(=O)c2cccs2)c1,9,10
Clc1c(-c2nnc3n2CCCCC3)sc2ccccc12,23,9
Cc1cccn2c(=O)c(C=C3C(=O)NC(=S)NC3=O)c(N3CCCC3)nc12,16,6
CCCN(CC(=O)Nc1ccc(F)c(F)c1F)Cc1c(C(=O)OCC)oc2ccccc12,4,4
CNS(=O)(=O)Cc1ccc2[nH]cc(CCN(C)C)c2c1,7,2
SMILES,BmaI1,BmaI1 counterscreen
O=C1c2ccccc2S(=O)(=O)N1Cc1cc(=O)[nH]c(=O)[nH]1,-1,-2
CCCCNC(=O)Cn1nnc(-c2cccc(C(F)(F)F)c2)n1,5,-1
COc1ccccc1CNC(=O)[C@@H]1CCCN1S(=O)(=O)c1ccc(C)cc1,17,8
c1nc(Nc2ccc(N3CCOCC3)cc2)c2ccsc2n1,52,24
CCOC(=O)c1oc2ccccc2c1COC(=O)CNC(=O)c1cccs1,8,2
CC(Sc1nnc(N)s1)C(=O)N1N=C(c2ccc(Cl)cc2)CC1c1ccco1 (centres undefined),-6,-4
CCN(CC)P1(=S)N(C)P(=S)(N(CC)CC)N1C (centres undefined),9,2
O=C(N=Nc1c(O)[nH]c2cc3c(cc12)OCCCO3)C1CCCCC1,4,-2
COc1ccc(C#N)cc1OC,0,1
CC(C)(C)CC(=O)NN1C(=O)c2cccc3cccc(c23)C1=O,16,20
COc1ccc2c(CC(=O)Oc3ccc(-c4ccc(C#N)cc4)cc3)coc2c1,14,2
Cc1noc(C)c1COc1cc2ccccc2cc1C(=O)NCC(F)(F)F,12,6
Cc1cccc(CSc2nc(N)cc(=O)[nH]2)c1,-1,8
O=C1NC2(CCCCCC2)C(=O)N1CCOc1cccc(Cl)c1,14,2
CC1CCN(CC(=O)Nc2ccc(S(N)(=O)=O)cc2)CC1,4,4
O=C(/C=C/c1ccco1)Nc1ccc2c(c1)nc1n2CCCCC1,12,-2
Cc1cc(/C=N/NC(=O)c2cccnc2)c(C)n1-c1cccc(S(=O)(=O)N2CCOCC2)c1,17,-7
CCOC(=O)c1oc2ccc(Br)cc2c1COC(=O)Cc1n[nH]c(=O)c2ccccc12,8,2
CC(N)C12CC3CC(CC(C3)C1)C2 (centres undefined),-2,0
O=C(COC(=O)c1cccc(-n2cccc2)c1)NCc1ccccc1,5,4
Oc1ccc(/C=N/NC(=S)N2CCOCC2)cc1,36,8
Cc1ccc2c(COC(=O)CNC(=O)c3ccc(Br)o3)cc(=O)oc2c1,16,8
Cc1cc(C)c(C#N)c(SCC(=O)N2CCCC2)n1,17,3
CN(CCCNCC1CC2C=CC1C2)c1ccccc1 (centres undefined),22,-4
CC1CCCCC1NC(=O)NC(=O)CSc1nc(N)cc(N)n1 (centres undefined),4,-6

# Profiles, looked up by structure:
# O=C(N=Nc1c(O)[nH]c2cc3c(cc12)OCCCO3)C1CCCCC1 is listed with BmaI1 = 4; BmaI1 counterscreen = -2
# O=C1c2ccccc2S(=O)(=O)N1Cc1cc(=O)[nH]c(=O)[nH]1 is listed with BmaI1 = -1; BmaI1 counterscreen = -2
# CCOC(=O)c1oc2ccc(Br)cc2c1COC(=O)Cc1n[nH]c(=O)c2ccccc12 is listed with BmaI1 = 8; BmaI1 counterscreen = 2

# The listing picks up, repeating the 5 entries before the break.
SMILES,BmaI1,BmaI1 counterscreen
Oc1ccc(/C=N/NC(=S)N2CCOCC2)cc1,36,8
Cc1ccc2c(COC(=O)CNC(=O)c3ccc(Br)o3)cc(=O)oc2c1,16,8
Cc1cc(C)c(C#N)c(SCC(=O)N2CCCC2)n1,17,3
CN(CCCNCC1CC2C=CC1C2)c1ccccc1 (centres undefined),22,-4
CC1CCCCC1NC(=O)NC(=O)CSc1nc(N)cc(N)n1 (centres undefined),4,-6
O=C1c2c(O)cc(O)cc2O[C@H](c2ccc(O)c(O)c2)[C@@H]1O,60,22
O=C(Nc1ccc2oc3ccccc3c2c1)C1COc2ccccc2O1 (centres undefined),12,8
CCN(CC(=O)Nc1ccc2c(c1)CCC2)CC(=O)Nc1ccc2c(c1)OCCO2,24,10
CC(C)[C@H](NC(=O)c1ccccc1)C(=O)OCc1nnc(-c2ccccc2)o1,8,13
COc1cc(OC)c(C(=O)CCCN2CCCC2)c(OC)c1,6,12
C=C(C)CN=C1SC(C(=O)Nc2sc3c(c2C(=O)OC)CCC3)C(N)=C1C(N)=O (centres undefined),38,21
CCC(C)c1ccccc1NC(=O)C(C)NC(C)=O (centres undefined),1,2
CCn1c(SCC(=O)NC(=O)Nc2ccccc2F)nnc1-c1ccccc1,18,10
NS(=O)(=O)c1ccc(CCNc2ccccn2)cc1,8,4
Cc1cc(C(=O)OCn2nnc3ccccc3c2=O)c(C)o1,37,9
Cc1cc(-n2c(C)cc(C(=O)OCc3c(Cl)cccc3Cl)c2C)no1,10,3
CN(Cc1ccccc1F)C(=O)c1cccc(S(=O)(=O)N(C)C)c1,-1,-4
O=C(COc1cc2ccccc2cc1C(=O)N1CCOCC1)Nc1ccc2c(c1)OCCO2,9,-4
S=C(NCCN1CCOCC1)Nc1ccc(-c2nnc3n2CCCCC3)cc1,-4,14
CCOC(=O)C1=C(C)Nc2ccccc2N/C1=N\S(=O)(=O)c1ccccc1,-14,4
CN(C)C(CNC(=O)c1cccc(OC(F)F)c1)c1ccco1 (centres undefined),26,12
O=C(Cc1n[nH]c(=O)c2ccccc12)NCC1CCCO1 (centres undefined),2,10
O=CNc1ccc(OC(=O)c2cncc(Br)c2)cc1,-20,-14
COc1ccc(C(NC(=O)CSc2nncn2C(C)C)c2ccccc2)cc1 (centres undefined),9,16
O=C(NC1CCN(Cc2ccccc2)CC1)c1cc(-c2ccco2)nc2ccccc12,30,6
COc1cccc(CNC(=O)c2ccc3nc[nH]c3c2)c1,4,-1
CCOC(=O)/C(C#N)=C/Nc1nc(CN2CCCCC2)cs1,18,8
Cc1csc(=O)n1CCC(=O)OCc1nnc(-c2ccccc2)o1,12,-1
O=C(O)CNC(=O)c1ccc2c(c1)OCO2,3,6
CCOC(=O)CC(=O)c1sc2c(c1N)c(=O)[nH]c(=O)n2-c1ccc(OC)cc1,15,12
SMILES,BmaI1,BmaI1 counterscreen
C[C@H](NC(=O)c1ccco1)C(=O)Nc1nc(-c2ccccn2)cs1,14,-8
CCOC(=O)c1[nH]c(C)c(C(=O)OCc2nc3ccc(Cl)cc3n2CCO)c1C,13,11
CC(C)[C@H](NC(N)=O)C(=O)Nc1ccc(Oc2ccccc2)cc1,12,8
O=C(OCc1nnc(-c2ccccc2)o1)C1(c2ccc(Cl)cc2)CCCC1,12,4
CC(CC(=O)Nc1nc2ccccc2[nH]1)c1ccccc1 (centres undefined),8,0
CC(C)C(NC(=O)Cc1ccccc1)C(=O)N1CCN(S(=O)(=O)c2cccc(Cl)c2)CC1 (centres undefined),8,8
CCc1cccc2c(C(=O)Cn3nc(C)c(C)c(C#N)c3=O)c[nH]c12,6,4
Cc1cc(C(=O)CN2C(=O)CNC2=O)c(C)n1-c1ccccc1,18,8
O=C(c1ccc(NS(=O)(=O)c2ccc(Cl)s2)cc1)N1CCN(C(=O)c2cccs2)CC1,1,-5
O=C1c2ccccc2C(=O)N1CN1CCN(Cc2ccccc2)CC1,0,4
CCC(CC)NC(=O)CSc1nc2c(cnn2-c2cccc(C)c2)c(=O)[nH]1,2,-12
C=CCN1C(=O)c2ccccc2N2C(=O)CCC12C(=O)O (centres undefined),18,6
Nc1nc(-c2ccco2)c(-c2ccco2)s1,76,85
OCCN1C[C@H](O)[C@@H](O)[C@H](O)[C@H]1CO,6,6
COCCCn1c(Sc2ccc(S(=O)(=O)N3CCCC3)cn2)nnc1-c1ccccc1Cl,11,8
COc1ccc(CC(=O)N2CCc3ccccc32)cc1OC,16,2
Cc1oc2ncn(C)c(=O)c2c1C(=O)O,10,1
CC(=O)Nc1ccc(/C=N/n2cc(-c3ccccc3)[nH]c2=S)cc1,90*,14*
O=S(=O)(NNC1=NCCCCC1)c1ccccc1,64,28
O=S1(=O)CC(O)C(N2CCN(Cc3ccccc3)CC2)C1 (centres undefined),13,2
O=C(OCC(=O)c1c[nH]c2ccccc12)c1cccs1,10,1
CC(C)(C)NCCOc1ccc2ccccc2c1,-6,-6
CCOC(=O)c1c(C)oc(NC(=O)c2nn(Cc3ccccc3)c(=O)c3ccccc23)c1C#N,8,11
O=C1Cc2ccccc2C(=O)N1,100*,7.0*
COC(=O)c1ccc(COC(=O)c2ccc3c(=O)n4c(nc3c2)CCCCC4)o1,14,6
SMILES,BmaI1,BmaI1 counterscreen
COC(=O)c1cc(OCC(=O)N2CC(C)CC(C)C2)cc(C(=O)OC)c1 (centres undefined),18,9
CC(C(=O)Nc1ccc2c(c1)OCCO2)N(C)Cc1c(F)cccc1Cl (centres undefined),10,8
O=C1c2ccccc2C(=O)N1Cc1cc(=O)n2ccsc2n1,15,10
CC(OC(=O)CSc1nc2ccccc2o1)c1nnc(-c2ccccc2)o1 (centres undefined),24,13
O=C(/C=C/c1cccs1)NCCOc1ccccc1,6,2
Cc1c(O)cccc1C(=O)N[C@@H](CSc1ccccc1)[C@H](O)CN1C[C@H]2CCCC[C@H]2C[C@H]1C(=O)NC(C)(C)C,12,12
N#CC1(P(=O)(c2ccccc2)c2ccccc2)CCCC1,6,0

# Two compounds picked at random from the list so far:
SMILES,BmaI1,BmaI1 counterscreen
O=C1NC2(CCCCCC2)C(=O)N1CCOc1cccc(Cl)c1,14,2
CCOC(=O)CC(=O)c1sc2c(c1N)c(=O)[nH]c(=O)n2-c1ccc(OC)cc1,15,12
